Screens as filed in PubChem.
RGS16-Gao – modulates binding between human RGS16 and Galphao | bead-based flow cytometry RGS16-Galphao binding, fluorescence; actives lie on both sides | 220,000 tested, 0.38% active | binding response (% of control), % at 10 µM;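 active = below 25% or above 175%, edge rows of some plates excepted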;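 also: Galphao activated by GDP with aluminum fluoride before binding; 100% = wells without compound and 0% = beads without RGS; some results beyond the cut were filed as inactive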
HSV augment – increases HSV replication in cells | HSV replication augmentation in cells, fold increase | maximum fold increase | 220,000 tested, 0.005% active;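 active = peak rise of 1.5-fold or more in the series; inconclusive = self-fluorescent or not available for retest; tested in PC3 cells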;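 also: first round at 10 µM; read as green reporter fluorescence; hits show the peak of a series up to 25 µM; 1 = signal of infected wells without compound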
INS promoter inh – TRM-6 insulin promoter activity inhibition | AID 1273 | 130,000 tested, 0.9% active | TRM-6 cells (human fetal islet line), insulin promoter-eGFP reporter, imaging; reporter expression induced with tamoxifen | inhibition, % at 2 µM;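 active = inhibition above the mean plus 3 SD, with well images judged a real hit on visual review, cut at about 60% in these data, passing the limit was not always enough; inconclusive = inhibition over the cutoff but images rejected on review; inactive = inhibition not above the cutoff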
GALR2 agonist – activates the human galanin receptor 2; GALR2-expressing cells, agonist activation read-out; activation, %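 (tested at 5 µM)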; 140,000 tested, 0.48% active; AID 803;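 active = above mean plus 3 SD of all compounds, about 5% in these data, not always enough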;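 also: 0% = vehicle buffer wells and 100% = reference agonist at full effect; tested in CHO reporter cells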
PKD1 inh – PKD1 (human) kinase inhibition; PKD1 kinase fluorescence polarization assay; inhibition, %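 (about 10 µM by stock and volumes)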; 200,000 tested, 0.056% active;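 active = inhibition of 50% or more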;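 also: controls were vehicle for no effect and a reference inhibitor for full effect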
Target sequence (Q15139 whole entry, looked up): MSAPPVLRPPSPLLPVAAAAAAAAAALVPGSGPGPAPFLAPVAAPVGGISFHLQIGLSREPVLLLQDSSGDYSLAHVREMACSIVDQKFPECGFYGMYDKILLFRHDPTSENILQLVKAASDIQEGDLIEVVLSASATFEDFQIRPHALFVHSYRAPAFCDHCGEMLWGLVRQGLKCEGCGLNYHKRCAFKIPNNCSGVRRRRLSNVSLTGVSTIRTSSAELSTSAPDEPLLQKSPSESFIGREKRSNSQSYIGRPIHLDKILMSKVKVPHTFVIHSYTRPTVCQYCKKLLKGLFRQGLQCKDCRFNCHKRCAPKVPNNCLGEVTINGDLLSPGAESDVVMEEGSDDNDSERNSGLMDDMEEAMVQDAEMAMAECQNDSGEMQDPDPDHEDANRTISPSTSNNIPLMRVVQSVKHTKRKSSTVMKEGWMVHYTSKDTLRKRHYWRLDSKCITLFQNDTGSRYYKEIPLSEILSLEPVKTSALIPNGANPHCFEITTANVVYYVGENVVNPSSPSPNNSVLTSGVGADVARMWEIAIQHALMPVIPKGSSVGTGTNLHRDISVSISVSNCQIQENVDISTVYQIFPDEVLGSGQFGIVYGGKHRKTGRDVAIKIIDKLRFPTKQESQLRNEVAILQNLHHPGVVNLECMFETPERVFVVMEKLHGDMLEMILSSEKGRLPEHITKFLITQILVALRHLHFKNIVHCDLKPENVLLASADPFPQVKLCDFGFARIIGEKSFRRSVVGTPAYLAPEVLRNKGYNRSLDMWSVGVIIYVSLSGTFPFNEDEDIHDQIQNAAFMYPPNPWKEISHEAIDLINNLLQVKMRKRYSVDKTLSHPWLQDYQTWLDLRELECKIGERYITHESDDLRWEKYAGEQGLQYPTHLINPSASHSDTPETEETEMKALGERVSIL
INS promoter inh cell count – recorded beside INS promoter inh, whose call it bears; normalized cell count, %; measured here: cell count, toxicity; reference of the scale not given here;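 cells exposed to compound for 48 h; stained nuclei by imaging scaled within each plate; lower means fewer cells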
HSV augment primary fold – further read-out of HSV augment, marked with its call; fold increase; compound at 10 µM; measured here: primary screen fold increase 10 uM; tested in PC3 cells;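 GFP signal in the first replicate; 1 = infected wells without compound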
Numbers without * were called inactive; i = inactive; ? = inconclusive; . = no result given.

SMILES	RGS16-Gao	HSV augment	HSV augment primary fold	INS promoter inh	INS promoter inh cell count	GALR2 agonist	PKD1 inh
COc1ccc(OCCCC(=O)Nc2ccc(N3CCCCC3)cc2)cc1	106	i	1	7	80	-1.2	-9
O=C(COC(=O)/C=C/c1ccccc1Cl)NC1CCCCCC1	111	i	0.91	18	154	.	-6
COCC(C)n1c(SCC(=O)NNC(=O)c2ccc(F)cc2)nc2ccccc2c1=O (stereo not given)	100	i	0.91	.	.	-0.2	-4
COc1cc(Cl)c(S(=O)(=O)N2CC(C)OC(C)C2)cc1Cl (stereo not given)	120	i	0.98	-61	150	-3.4	-4
CCOC(=O)C1CCCN(C(=O)c2cc(Nc3ccc(OC)cc3)nc3ccccc23)C1 (stereo not given)	106	i	0.79	22	117	-1.3	-4
CCCCC1(CC)C(=O)NC(=O)NC1=Nc1ccc(OC)cc1 (stereo not given)	98	i	1	-50	133	-0.5	-1
CC(C)c1nc2scc(-c3ccc(Cl)cc3)c2c(=O)n1N	95	i	1	.	.	.	.
COc1cc(CC(=O)OCC(=O)NCC(C)C)cc(OC)c1OC	105	i	1.1	.	.	.	-3
Cc1ccc(NC2=NCC(=O)N2C2CCCC2)cc1C	109	i	1	.	.	.	3
CSc1nnc(C)c(/C=C/Nc2ccc(Cl)cc2)n1	92	i	1.1	-17	88	-0.7	4
NC(=O)c1ccc(N=Nc2c(-c3ccccc3)[nH]n(-c3ccccc3)c2=O)cc1	108	i	0.9	.	.	.	1
COc1ccc(-n2c(=O)cc(N3CCCCCC3)[nH]c2=O)cc1	104	i	1.1	58	146	-1.4	-1
CNC(=S)N1N=C(c2ccc(OC)cc2)CC1c1ccc(Cl)cc1Cl (stereo not given)	94	i	1.1	.	.	.	-10
COc1ccc(C(CC(=O)O)NC(=O)COc2ccccc2)cc1OC (stereo not given)	100	i	1.3	.	.	-1.7	-12
O=C(CNS(=O)(=O)c1ccc(F)cc1)N1CCCCCC1	108	i	1	.	.	.	0
CCCn1c(SCC(=O)Nc2cccc(C(=O)OC)c2)nnc1-c1cccnc1	77	.	.	.	.	-0.9	7
N#Cc1c(NC(=O)c2ccccc2Cl)n(Cc2ccccc2)c2nc3ccccc3nc12	98	?	.	.	.	8.2*	1
CC(C)CC(=O)NNC(=S)NCc1ccco1	97	i	0.87	.	.	.	-1
O=C(Cc1ccc(-n2cccc2)cc1)N1CCN(c2ccccc2F)CC1	98	.	.	.	.	-0.8	4
CCOC(=O)c1c(-c2cccs2)csc1NC(=O)COC(=O)c1c(C)noc1C	95	i	0.9	.	.	-2.2	-12
Cc1cc(C(=O)NCc2ccco2)c2cc(F)ccc2n1	114	i	1	.	.	.	-6
C#CCOCCOCCOCCNc1nc(N2CCN(C(=O)[C@H](CCC(=O)O)n3cc(C(N)CC(C)C)nn3)CC2)nc(N2CCN(C(=O)[C@H](CCC(=O)O)n3cc(C(N)CC(C)C)nn3)CC2)n1 (stereo not given in full)	108	i	0.92	.	.	.	5
CCN(CC)CCNC(=O)C(=O)Nc1ccc(C(=O)OC)cc1	105	i	1	.	.	.	.
Cc1cc(Nc2ccc(C(=O)O)cc2)n2nc(C)nc2n1	101	i	0.88	.	.	-2.1	13
CC1CCC2C(C1)c1sc(=O)[nH]c1SC2(C)C (stereo not given)	100	i	0.86	55	36	-0.6	-5

Rewritten field by field: four of the compounds above
> COc1cc(CC(=O)OCC(=O)NCC(C)C)cc(OC)c1OC
- RGS16-Gao: 105
- HSV augment: i
- HSV augment primary fold: 1.1
- INS promoter inh: .
- INS promoter inh cell count: .
- GALR2 agonist: .
- PKD1 inh: -3

> Cc1ccc(NC2=NCC(=O)N2C2CCCC2)cc1C
- RGS16-Gao: 109
- HSV augment: i
- HSV augment primary fold: 1
- INS promoter inh: .
- INS promoter inh cell count: .
- GALR2 agonist: .
- PKD1 inh: 3

> CSc1nnc(C)c(/C=C/Nc2ccc(Cl)cc2)n1
- RGS16-Gao: 92
- HSV augment: i
- HSV augment primary fold: 1.1
- INS promoter inh: -17
- INS promoter inh cell count: 88
- GALR2 agonist: -0.7
- PKD1 inh: 4

> NC(=O)c1ccc(N=Nc2c(-c3ccccc3)[nH]n(-c3ccccc3)c2=O)cc1
- RGS16-Gao: 108
- HSV augment: i
- HSV augment primary fold: 0.9
- INS promoter inh: .
- INS promoter inh cell count: .
- GALR2 agonist: .
- PKD1 inh: 1

Further entries
SMILES	RGS16-Gao	HSV augment	HSV augment primary fold	INS promoter inh	INS promoter inh cell count	GALR2 agonist	PKD1 inh
Fc1c(CSC(=S)N2CCOCC2)cccc1CSC(=S)N1CCOCC1	105	i	1.2	.	.	.	.
COc1ccc(OC)c(C(=O)c2ccccc2)c1	126	i	0.8	81*	25*	-1.1	-10
COc1ccc(C(NC(=O)C(C)C)c2c(O)ccc3ccccc23)cc1 (stereo not given)	114	i	0.58	-67	60	.	-2
FC(F)(F)c1cnc(C(c2ccccn2)c2ncn[nH]2)c(Cl)c1 (stereo not given)	95	i	0.91	.	.	.	-3
O=C(N/N=C\c1ccc(OC(=O)c2ccco2)cc1)c1ccc(Cl)cc1	106	i	1.1	.	.	.	-5
COc1ccc(OC)c(S(N)(=O)=O)c1	101	i	1.1	33	132	-1.1	0
CC(=O)c1cc2c(=O)c3cc(C)ccc3oc2nc1C	101	i	0.92	.	.	-1.9	-3
COC(=O)c1ccc(C(=O)OC)c(NC(=O)CN(c2ccc3c(c2)OCO3)S(C)(=O)=O)c1	105	i	0.98	50	92	2.2	-8
Cc1nc2cc(NC(=O)Nc3ccc(N4CCOCC4)cc3)ccc2n1C	81	i	0.87	14	111	-1.7	-8
CCOC(=O)c1c(C)nc2ccc(Cl)cc2c1-c1ccccc1	106	i	1	35	110	1.1	-16
CCCc1nnc(NC(=O)CSc2nc3ccccc3[nH]2)s1	102	i	1	.	.	.	3
CCSc1nc2ccccc2c(=O)n1C1CCOC(C)(C)C1 (stereo not given)	104	i	0.97	0	96	.	7
Cc1c(NC(=O)CCSc2ccc(Cl)cc2)c(=O)n(-c2ccccc2)n1C	91	i	0.97	-33	112	-1.3	6
CCc1ccc(C(C)NC(=O)C2(C)CC2(Br)Br)cc1 (stereo not given)	72	.	.	-34	96	-1.2	-5
CCOC(=O)COc1ccc(C(=O)CC)cc1OC	101	i	0.85	.	.	.	-11
CCN(C(C)=O)c1nc(CSc2nnc(NC(C)C)s2)cs1	109	i	0.9	-9	96	-1.3	-2
C[C@H]1O[C@@H](O[C@H]2[C@@H](O)C[C@H](O[C@H]3[C@@H](O)C[C@H](O[C@H]4CC[C@@]5(C)[C@H](CC[C@@H]6[C@@H]5C[C@@H](O)[C@]5(C)[C@@H](C7=CC(=O)OC7)CC[C@]65O)C4)O[C@@H]3C)O[C@@H]2C)C[C@H](O)[C@@H]1O	110	i	0.51	100*	0.0*	-0.1	-1
CCOC(=O)C(Cc1ccccc1)NC(=O)CNC(C)=O (stereo not given)	102	i	0.97	.	.	-0.6	13
COc1cccc(C(=O)N2N=C(c3ccccn3)CC2(O)C(F)(F)F)c1 (stereo not given)	101	i	0.85	.	.	.	.
C=CCOC(=O)C1=C(C)N=C2SCCC(=O)N2C1c1cccs1 (stereo not given)	100	i	1.1	-9	59	-1.1	-5
S=C(NCCc1ccccc1)NC1CCCCCC1	101	i	0.65	-17	84	-0.8	-7
O=S1(=O)CCN(C(CO)c2ccccc2)CC1 (stereo not given)	100	i	0.9	22	99	.	-11
COc1cc(OC)cc(-c2cc(NC(C)=O)n[nH]2)c1	98	i	0.9	.	.	-0.9	-5
Cc1ccc(Nc2nc(-c3ccccc3)c(CC(=O)O)s2)cc1	104	i	1.1	-45	132	.	-3
O=C(CSc1ncn[nH]1)Nc1nc(-c2ccccc2)cs1	106	i	0.87	22	105	-3.5	-15

Just HSV augment primary fold and INS promoter inh (2 entries from above):
Molecule | HSV augment primary fold | INS promoter inh
FC(F)(F)c1cnc(C(c2ccccn2)c2ncn[nH]2)c(Cl)c1 (stereo not given) | 0.91 | .
O=C(N/N=C\c1ccc(OC(=O)c2ccco2)cc1)c1ccc(Cl)cc1 | 1.1 | .

Next results:
SMILES	RGS16-Gao	HSV augment	HSV augment primary fold	INS promoter inh	INS promoter inh cell count	GALR2 agonist	PKD1 inh
O=C1CCc2cc(S(=O)(=O)N3CCN(Cc4ccc5c(c4)OCO5)CC3)ccc2N1	108	i	1.1	.	.	-1.1	-11
O=C(c1ccc(Br)o1)N1CCN=C1SCc1cccc(F)c1	98	i	0.9	.	.	0.1	-11
COc1cc(CC(=O)NCc2ccccn2)cc(OC)c1OC	105	i	0.95	26	78	-2.0	-9
CN(Cc1ccccc1)C(=O)CNC(=O)Cn1cnc2ccccc2c1=O	106	i	0.95	10	138	-1.9	-6
COc1cc(O)sc1C=Nc1ccc(Cl)cc1	101	i	1	.	.	.	-5
COc1ccc(C(=O)NC(C)c2ccccc2)cc1Br (stereo not given)	106	i	0.93	.	.	.	1
C=CCNC(=S)NNC(=O)c1cccn(Cc2ccc(Cl)c(Cl)c2)c1=O	96	i	0.82	.	.	-1.4	9
O=C(c1ccco1)N(CCC(c1ccccc1)c1ccco1)Cc1ccccc1 (stereo not given)	90	i	0.94	-7	78	-0.6	6
CC(C)CCN1CCNC(=O)C1CC(=O)Nc1ccc(F)cc1 (stereo not given)	102	i	0.8	-186	55	-3.0	6
COCCNC(=O)/C(C#N)=C/c1cc(C(C)C)c(OC)cc1C	99	i	0.89	28	127	.	-6
CCN(CC)CCNC(=O)/C(=C/c1cn(CC)c2ccccc12)NC(=O)c1cc(OC)c(OC)c(OC)c1	98	i	0.97	33	61	.	6
COc1ccc(N2CCN(CCNC(=O)CCN3C(=O)COc4ccccc43)CC2)cc1	100	i	0.89	.	.	-3.1	-9
O=C(NCc1ccc2c(c1)OCO2)NC12CC3CC(CC(C3)C1)C2	162	i	0.96	45	117	.	-3
COc1ccc2nc(NC(=O)c3cccs3)sc2c1	111	i	1	.	.	.	.
CCOC(=O)C1CCN(C(=O)c2ccc(Cl)c(Cl)c2)CC1	102	i	1	-248	28	-2.2	-5
CC(OC(=O)CCCCCN=C1NS(=O)(=O)c2ccccc21)C(=O)Nc1cc(Cl)cc(Cl)c1 (stereo not given)	110	i	1	-21	89	-1.5	-4
O=C(COC(=O)c1cc(-c2ccco2)nc2ccccc12)NCc1ccccc1	104	i	1.1	-1	104	-0.5	5
C=CCNC(=O)Nc1ccc2oc(C)nc2c1	98	i	0.96	0	109	-3.1	-9
CNCC(=O)N1CCN(c2ncc(C(F)(F)F)cc2Cl)CC1	96	i	0.93	.	.	.	3
CCOP(=O)(OCC)C(NC(=O)Nc1ccc(C)c(Cl)c1)c1ccccc1 (stereo not given)	99	i	0.83	22	99	-2.3	-18
C/C(=N/NC(=O)CNC(=O)C(c1ccccc1)c1ccccc1)c1ccco1	100	i	1.2	.	.	.	.
CN(C)c1nc(OCCOC(=O)COc2ccc(Cl)cc2Cl)nc(N(C)C)n1	100	i	0.8	-5	73	1.6	0
CC1CC(C)CN(C(=O)CNS(=O)(=O)c2ccc(Br)s2)C1 (stereo not given)	101	i	0.93	-2	135	0.8	-2
O=C(C1CCCO1)N(c1cccc(Cl)c1)C1C=CS(=O)(=O)C1 (stereo not given)	63	i	1.1	.	.	-0.6	-3
COc1ccccc1C(=O)NNC(=O)C(=O)NC(C)C	103	i	0.97	0	113	.	-1
COC(C)(C)[C@H](O)COc1c2ccoc2cc2oc(=O)ccc12	103	i	1.2	14	106	-0.3	-6
Cc1ccccc1C(=O)Nc1ccccc1N1CCCCC1	118	i	1	.	.	.	5

GALR2 agonist, what is marked active above
Molecule,RGS16-Gao,HSV augment,HSV augment primary fold,GALR2 agonist,PKD1 inh
N#Cc1c(NC(=O)c2ccccc2Cl)n(Cc2ccccc2)c2nc3ccccc3nc12,98,?,.,8.2*,1
